Screens as filed in PubChem BioAssay.
RGS16-Gao = regulators of human RGS16-Galphao interaction; binding response (% of control), % at 10 µM; O15492+P09471; AID 1441; bead-based flow cytometry RGS16-Galphao binding, fluorescence; actives lie on both sides; actives 0.38% (n = 220,000);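 active means below 25% or above 175%, edge rows of some plates excepted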;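 further: Galphao activated by GDP with aluminum fluoride before binding; 100% = wells without compound and 0% = beads without RGS; some results beyond the cut were filed as inactive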
GALR2 ag = activates the human galanin receptor 2; actives 0.48% (n = 140,000); activation, %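 (tested at 5 µM)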; GALR2-expressing cells, agonist activation read-out; O43603; AID 803;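 active means above mean plus 3 SD of all compounds, about 5% in these data, not always enough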;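 further: 0% = vehicle buffer wells and 100% = reference agonist at full effect; tested in CHO reporter cells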
INS promoter inh = TRM-6 insulin promoter activity inhibition. TRM-6 cells (human fetal islet line), insulin promoter-eGFP reporter, imaging; reporter expression induced with tamoxifen. inhibition, % at 2 µM. actives 0.9% (n = 130,000);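 active means inhibition above the mean plus 3 SD, with well images judged a real hit on visual review, cut at about 60% in these data, passing the limit was not always enough; inconclusive means inhibition over the cutoff but images rejected on review; inactive means inhibition not above the cutoff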
PKD1 inh = PKD1 (human) kinase inhibition; inhibition, %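 (about 10 µM by stock and volumes)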; actives 0.056% (n = 200,000); AID 797; PKD1 kinase fluorescence polarization assay; Q15139;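 active means inhibition of 50% or more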;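 further: controls were vehicle for no effect and a reference inhibitor for full effect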
Target sequence (Q15139 whole entry, looked up): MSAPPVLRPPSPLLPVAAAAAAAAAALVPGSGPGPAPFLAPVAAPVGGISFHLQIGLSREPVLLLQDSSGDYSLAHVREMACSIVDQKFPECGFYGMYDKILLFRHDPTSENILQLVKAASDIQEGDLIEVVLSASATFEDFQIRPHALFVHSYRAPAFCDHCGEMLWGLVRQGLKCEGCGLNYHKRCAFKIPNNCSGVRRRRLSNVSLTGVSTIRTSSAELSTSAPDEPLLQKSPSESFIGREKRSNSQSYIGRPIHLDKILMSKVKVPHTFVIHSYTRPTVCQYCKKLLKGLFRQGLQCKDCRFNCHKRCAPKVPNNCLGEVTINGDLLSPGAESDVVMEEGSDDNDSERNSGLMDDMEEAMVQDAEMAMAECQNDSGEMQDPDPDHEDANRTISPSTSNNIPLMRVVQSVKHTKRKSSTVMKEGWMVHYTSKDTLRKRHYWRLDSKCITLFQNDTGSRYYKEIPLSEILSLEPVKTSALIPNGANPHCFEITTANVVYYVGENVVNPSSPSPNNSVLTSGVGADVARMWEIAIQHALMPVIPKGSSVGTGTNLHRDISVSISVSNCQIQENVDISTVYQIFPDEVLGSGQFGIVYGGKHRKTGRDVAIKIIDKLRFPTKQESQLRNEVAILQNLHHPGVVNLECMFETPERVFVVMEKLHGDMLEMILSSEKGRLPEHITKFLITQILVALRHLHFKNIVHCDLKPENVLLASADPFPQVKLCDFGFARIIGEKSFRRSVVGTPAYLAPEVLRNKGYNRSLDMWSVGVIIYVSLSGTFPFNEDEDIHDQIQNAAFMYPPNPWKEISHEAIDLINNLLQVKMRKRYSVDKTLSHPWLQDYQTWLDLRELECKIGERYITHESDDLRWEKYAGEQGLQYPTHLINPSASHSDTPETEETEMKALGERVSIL
HSV augment = increases HSV replication in cells | actives 0.005% (n = 220,000) | HSV replication augmentation in cells, fold increase | maximum fold increase | AID 1956;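 active means peak rise of 1.5-fold or more in the series; inconclusive means self-fluorescent or not available for retest; tested in PC3 cells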;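 further: first round at 10 µM; read as green reporter fluorescence; hits show the peak of a series up to 25 µM; 1 = signal of infected wells without compound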
INS promoter inh cell count = second read-out of INS promoter inh, no call of its own (marks repeat the call); normalized cell count, %; measured here: cell count, toxicity; reference of the scale not given here;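 cells exposed to compound for 48 h; stained nuclei by imaging scaled within each plate; lower means fewer cells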
HSV augment primary fold = recorded beside HSV augment, whose call it bears; fold increase; compound at 10 µM; measured here: primary screen fold increase 10 uM; tested in PC3 cells;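 GFP signal in the first replicate; 1 = infected wells without compound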
An asterisk follows results filed as active; i = inactive; ? = inconclusive; . = not tested or not shown.

item	Molecule	RGS16-Gao	GALR2 ag	INS promoter inh	INS promoter inh cell count	PKD1 inh	HSV augment	HSV augment primary fold
1	c1ccc(-c2cc(-c3nc(-c4ccccn4)no3)c3ccccc3n2)cc1	.	-2.2	15	115	0	i	0.9
2	CC(NS(C)(=O)=O)C(c1cccs1)N1CCN(C)CC1 (centres undefined)	104	-3.6	.	.	-10	i	0.96
3	CC(C)(C)N(Cc1cc2ccccc2[nH]c1=O)C(=O)C1CCCCC1	66	-1.4	-71	92	-8	i	0.96
4	CCC(NC(=O)NCc1ccc2c(c1)OCO2)(C(F)(F)F)C(F)(F)F	102	-0.6	59	140	-12	i	0.92
5	CCOC(=O)C1CCN(S(=O)(=O)c2ccc(Cl)nc2)CC1	102	.	.	.	.	i	1
6	CCc1ccc(NC(=O)CS(=O)CC(=O)NCCCc2ccccc2)cc1 (centres undefined)	96	-2.2	.	.	3	i	0.95
7	CCn1c(COc2ccccc2C)nnc1SCC(=O)N1CCN(c2ccccc2)CC1	101	-2.6	-75	109	-4	i	0.98
8	Cc1ccn2cc(-c3cnoc3C)nc2c1	101	-0.7	.	.	7	i	1
9	CN(C)S(=O)(=O)N(CC(=O)Nc1ccccc1)c1ccccc1	100	-1.8	6	105	2	i	0.9
10	O=C(CC1NCCNC1=O)Nc1cc(Cl)cc(Cl)c1 (centres undefined)	101	-0.8	-56	106	1	i	0.85
11	CCOC(=O)CCCC(=O)N1CCOCCOCCOCC1	86	.	.	.	.	i	1.1
12	CCOC(=O)c1ccc(NC(=S)Nc2ccccn2)cc1	103	-2.0	-4	119	-5	?	.
13	Cc1c(C(=O)N2CCN(c3ccccn3)CC2)sc2ncnc(N3CCOCC3)c12	106	0.8	20	56	-4	i	0.91
14	COc1ccc(N2CCN(C(C)C(=O)N3CC(C)OC(C)C3)CC2)cc1 (centres undefined)	101	.	.	.	2	i	1.1
15	Cc1ccc(CS(=O)(=O)c2nc3c(c(N(C)C)n2)CCCC3)cc1	101	.	.	.	1	i	0.92
16	CCc1ccc(NC(=O)N(CCN2CCOCC2)C2CCN(C(C)=O)CC2)cc1	116	1.6	57	69	4	i	1.1

Single entries from the entries so far:
#15 – PKD1 inh: 1
#12 – INS promoter inh cell count: 119

(listing goes on)
item	Molecule	RGS16-Gao	GALR2 ag	INS promoter inh	INS promoter inh cell count	PKD1 inh	HSV augment	HSV augment primary fold
17	CNC(=O)c1cc2cc(OC)ccc2n1CCN(Cc1ccccc1)Cc1ccccc1	105	-0.7	-3	148	-5	i	0.89
18	Cc1cc(C)cc(NC(=O)CN2CCC(NC(=O)Cc3ccccc3)CC2)c1	166	-2.3	.	.	-6	i	0.96
19	O=c1c(-c2ccc(O)cc2)coc2cc(OC3OC(CO)C(O)C(O)C3O)ccc12 (centres undefined)	100	-0.7	35	123	-7	i	0.97
20	CN(C)C(/C=C/Nc1ccc(F)cc1F)=C(C#N)C#N	100	-0.6	.	.	-2	i	0.98
21	FC(F)(F)c1cc(Oc2ccccc2)ncc1-c1nnc(-c2ccccc2Cl)o1	101	.	.	.	.	i	1.1
22	COCCOC(=O)C1=C(C)N=c2s/c(=C\c3cccs3)c(=O)n2C1c1cccs1 (centres undefined)	102	-3.5	-55	162	-3	i	1
23	CCOc1cccc(-c2nnc(SCC(=O)Nc3ccc(OC)c(OC)c3)n2N)c1	110	1.2	-19	127	15	i	0.82
24	Cc1cc(/N=C/N(C)C)on1	93	-1.1	-86	81	-4	i	0.96
25	Cc1cccc2[nH]c3c(N4CC=C(c5ccc(F)cc5)CC4)ncnc3c12	100	.	.	.	.	i	1.1
26	Cc1ccc(C(=O)Nc2nc(-c3ccc([N+](=O)[O-])cc3)cs2)o1	98	-1.0	28	128	-7	i	1
27	O=C(Cn1c(CC(=O)N2CCCC2)nc2ccccc21)NCc1ccccc1	86	-1.5	-17	119	10	i	0.93
28	Clc1cccc(Cl)c1CO/N=C/c1c(-c2ccccc2)nc2n1CCS2	98	1.0	-15	152	10	i	0.79
29	CC(OC(=O)c1ccc([N+](=O)[O-])s1)C(=O)Nc1ncc(Cl)cc1Cl (centres undefined)	87	-0.6	-27	64	3	i	0.83
30	Brc1ccc(-c2nc(N/N=C/c3cccnc3)c3ccccc3n2)cc1	103	76*	26	59	-7	i	1
31	O=C(CSc1nnc(CNc2ccc(F)cc2)n1Cc1ccccc1)NCc1ccco1	100	0.1	-127	92	10	i	0.83
32	CCc1nnc(NC(=O)CSc2ncc(-c3ccccc3)n2C)s1	102	-1.1	.	.	3	i	1.1
33	COc1ccccc1Nc1nc2cc(C)ccc2cc1C#N	102	.	.	.	-5	i	0.77
34	CCOC(=O)c1c(NC(=S)Nc2ccccc2)sc2c1CCN(CC)C2	115	0.3	-42	97	-13	?	.
35	N#Cc1ccsc1NC(=O)CSc1ncnc2ccccc12	93	-3.3	.	.	-3	i	1
36	Cc1nn(-c2ccccc2)c(Cl)c1/C=N/Nc1ccc(S(=O)(=O)Nc2ccccc2C(=O)O)cc1[N+](=O)[O-]	104	-2.1	-14	47	9	.	.
37	CC(=O)OC1OCCOC1NC(=S)Nc1cccc(C(F)(F)F)c1 (centres undefined)	101	.	.	.	-4	i	0.85
38	CCCOc1ccc(C(=O)Nc2ccc(N(C)C)cc2)cc1	105	-1.1	.	.	-7	i	0.68
39	COC(=O)c1cn(CC(=O)N2CCCCC2C)c2ccccc12 (centres undefined)	110	-0.5	-54	134	-6	i	0.97
40	Cc1ccc(N(C)C(=O)N2CCN(S(=O)(=O)c3c(C)cc(C)cc3C)CC2)cc1	109	-1.5	-63	126	2	i	0.81
41	O=C(NNC(=O)c1cccnc1)Nc1cccc2ccccc12	94	-3.8	.	.	-4	i	1
42	O=C(Nc1ccccc1C(=O)N1CCOCC1)C1CC(=O)N(C2CCCC2)C1 (centres undefined)	102	0.7	29	46	-6	i	0.85
43	CCC1CCCCN1C(=O)CSc1nc(N)cc(N)n1 (centres undefined)	110	.	.	.	-5	i	0.88
44	Cc1nn(C)cc1C(C(=O)NC1CCCCC1)N(Cc1ccccc1Cl)C(=O)c1cnccn1 (centres undefined)	100	.	.	.	0	i	0.85
45	Cc1nn(C)c(C(=O)NCc2ccc(Cl)cc2)c1Cl	106	0.6	10	130	0	i	0.96
46	COc1ccc(C(=O)C2CCCN(Cc3cccn3-c3nccs3)C2)cc1OC (centres undefined)	107	.	.	.	.	i	1
47	CCOc1cc(NC(=S)NCC2CCCO2)c(OCC)cc1NC(=O)c1ccccc1C (centres undefined)	103	-2.9	-68	99	-1	i	0.85
48	COc1ccc(/C=C2/SC(=S)N(n3c(C)ccc3C)C2=O)cc1	102	-1.9	-36	212	-4	.	.
49	CCc1nnc(NC(=O)c2cc3ccccc3oc2=O)s1	105	-1.4	-33	41	-7	i	0.67
50	CCNc1nc(Sc2ccc(C)cc2)cc(C(F)(F)F)n1	107	-3.0	22	122	-9	i	0.99
51	CN(C)N=Nc1ccc(S(N)(=O)=O)cc1	110	.	-14	93	1	i	0.89
52	COc1ccccc1NC(=O)CCCn1c(=S)[nH]c2ccccc2c1=O	101	.	-29	71	-1	i	0.94
53	CCCCN(C(=O)CSc1cc(C)c2ccc(OC)cc2n1)c1c(N)n(Cc2ccccc2)c(=O)[nH]c1=O	63	-0.2	-22	125	-5	i	0.94
54	Cc1ccc2c(C(=O)CN3CCCC3)c(C)[nH]c2c1	107	0.1	.	.	-7	i	0.92
55	Cc1ccc(CNc2nc3ccc(C)cc3n3cnnc23)cc1	70	-0.8	.	.	-4	i	0.8
56	Cc1cc(C)c(O)c(-c2cc(C(=O)Nc3c(C)n(C)n(-c4ccccc4)c3=O)[nH]n2)c1	101	.	.	.	.	i	0.91

Entries shown so far containing a CF3 group:
item	Molecule	RGS16-Gao	GALR2 ag	INS promoter inh	INS promoter inh cell count	PKD1 inh	HSV augment	HSV augment primary fold
4	CCC(NC(=O)NCc1ccc2c(c1)OCO2)(C(F)(F)F)C(F)(F)F	102	-0.6	59	140	-12	i	0.92
21	FC(F)(F)c1cc(Oc2ccccc2)ncc1-c1nnc(-c2ccccc2Cl)o1	101	.	.	.	.	i	1.1
37	CC(=O)OC1OCCOC1NC(=S)Nc1cccc(C(F)(F)F)c1 (centres undefined)	101	.	.	.	-4	i	0.85
50	CCNc1nc(Sc2ccc(C)cc2)cc(C(F)(F)F)n1	107	-3.0	22	122	-9	i	0.99

Remaining list, next part.
item	Molecule	RGS16-Gao	GALR2 ag	INS promoter inh	INS promoter inh cell count	PKD1 inh	HSV augment	HSV augment primary fold
57	Cc1ccc(-c2c[n+](CC(=O)Nc3c(C)cccc3C)c3n2CCC3)cc1	98	.	.	.	.	i	0.97
58	Cc1cc(C)nc(SCSc2nc(C)cc(C)n2)n1	103	-0.1	.	.	-10	i	0.96
59	CCCCCn1c(=O)c(-c2nc3ccccc3[nH]2)c(O)c2ccccc21	107	.	.	.	-9	i	0.97
60	CC(C)(C)NC(=O)CSc1nnc(C2CC2)n1-c1ccccc1	103	.	.	.	9	i	1
61	O=C(O)C1CCCCC1C(=O)NCCCCc1ccccc1 (centres undefined)	136	-3.1	.	.	-18	i	1.1
62	O=c1c2cc(NC(=S)NC3CC3)ccc2nc2n1CCCCC2	103	.	.	.	-7	i	0.97
63	O=C(Nc1ccccc1)N1CCN(CCc2ccccc2)CC1	114	.	.	.	2	i	0.9
64	COC(=O)c1ccccc1Sc1c(/C=N/OCc2ccc(Cl)cc2)c(C(F)(F)F)nn1C	102	-1.2	7	106	-8	i	1

Entries above that contain a Cl atom, in the order listed:
item	Molecule	RGS16-Gao	GALR2 ag	INS promoter inh	INS promoter inh cell count	PKD1 inh	HSV augment	HSV augment primary fold
5	CCOC(=O)C1CCN(S(=O)(=O)c2ccc(Cl)nc2)CC1	102	.	.	.	.	i	1
10	O=C(CC1NCCNC1=O)Nc1cc(Cl)cc(Cl)c1 (centres undefined)	101	-0.8	-56	106	1	i	0.85
21	FC(F)(F)c1cc(Oc2ccccc2)ncc1-c1nnc(-c2ccccc2Cl)o1	101	.	.	.	.	i	1.1
28	Clc1cccc(Cl)c1CO/N=C/c1c(-c2ccccc2)nc2n1CCS2	98	1.0	-15	152	10	i	0.79
29	CC(OC(=O)c1ccc([N+](=O)[O-])s1)C(=O)Nc1ncc(Cl)cc1Cl (centres undefined)	87	-0.6	-27	64	3	i	0.83
36	Cc1nn(-c2ccccc2)c(Cl)c1/C=N/Nc1ccc(S(=O)(=O)Nc2ccccc2C(=O)O)cc1[N+](=O)[O-]	104	-2.1	-14	47	9	.	.
44	Cc1nn(C)cc1C(C(=O)NC1CCCCC1)N(Cc1ccccc1Cl)C(=O)c1cnccn1 (centres undefined)	100	.	.	.	0	i	0.85
45	Cc1nn(C)c(C(=O)NCc2ccc(Cl)cc2)c1Cl	106	0.6	10	130	0	i	0.96
64	COC(=O)c1ccccc1Sc1c(/C=N/OCc2ccc(Cl)cc2)c(C(F)(F)F)nn1C	102	-1.2	7	106	-8	i	1

Following part
item	Molecule	RGS16-Gao	GALR2 ag	INS promoter inh	INS promoter inh cell count	PKD1 inh	HSV augment	HSV augment primary fold
65	CCc1c(C)nc(N2CCOCC2)[nH]c1=O	103	0.1	.	.	-6	i	0.84
66	O=C(Nc1ccc(-c2nnco2)cc1)c1ccccc1	104	-2.0	-72	155	-7	i	1.1
67	CC(=O)Nc1ccc(N=Cc2c(O)c(C(=O)Nc3ccccc3)cc3ccccc23)cc1	105	.	-56	100	30	i	0.78
68	Cn1c(=O)cc(SCC(=O)NCCN2CCN(c3ccccc3F)CC2)c2cc(Cl)ccc21	98	-1.1	-67	88	-7	i	0.82
69	C[C@H](NC(=O)c1nc[nH]c1C(=O)N[C@H](C)c1ccccc1)C(=O)OCc1ccccc1	101	.	.	.	.	i	0.78
70	COc1cccc(CN2CCN(Cc3ccc4c(c3)OCCO4)CC2CCO)c1 (centres undefined)	111	.	.	.	-2	i	0.89
71	O=C(CCc1nnc(Cc2c[nH]c3ccccc23)o1)NC1CCCC1	113	.	.	.	4	i	0.88
72	COc1ccc(OCc2nn3c(Cn4cnc5ccccc54)nnc3s2)cc1	38	-3.3	.	.	-20	i	0.93
73	COCCn1c(SCC(=O)NCc2ccc3c(c2)OCO3)nc2ccccc2c1=O	100	.	-24	71	-1	i	1.1
